# HCMV UL50-53 inh: inhibitors of HCMV UL50-UL53 nuclear egress complex interaction | HTRF UL50-UL53 interaction, normalized percent inhibition | inhibition, % (test concentration not listed) | 190,000 tested, 0.15% active;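 active = both replicates at 50% or more, plus weaker picks with an unusually low signal ratio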;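 also: stock transfer was 100 nL into about 20 µL; 0% = negative control wells and 100% = wells with untagged competitor protein; inactives centre near -12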
# Sa growth 42C: blocks Staphylococcus aureus growth | AID 720641 | 170,000 tested, 0.53% active | relative growth, % (test concentration not listed) | S. aureus RN4220 growth, OD600, 20 h, 42 °C; hits give low values;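 active = growth at 42 °C up to 50% and 20 or more points under that at 30 °C, or under 10% at both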;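 also: 300 nL library stock went into each well; scaled to the means of positive and negative controls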
# GIV Gai3 FP: inhibitors of GIV GBA-motif binding to rat Galpha-i3; P08753; Galpha-i3/FITC-GIV peptide fluorescence polarization, 90 min; hits give low values; scaled: aluminum fluoride 0%, vehicle 100%; percent of control (FP), % (test concentration not listed); 210,000 tested, 0.42% active; AID 1224905;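 active = replicate mean at 85% of control or lower, very high polarization wells dropped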;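 also: wells of about 15 µL received 100 nL stock; the first replicate is given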
# Target sequence (P08753 whole entry, looked up): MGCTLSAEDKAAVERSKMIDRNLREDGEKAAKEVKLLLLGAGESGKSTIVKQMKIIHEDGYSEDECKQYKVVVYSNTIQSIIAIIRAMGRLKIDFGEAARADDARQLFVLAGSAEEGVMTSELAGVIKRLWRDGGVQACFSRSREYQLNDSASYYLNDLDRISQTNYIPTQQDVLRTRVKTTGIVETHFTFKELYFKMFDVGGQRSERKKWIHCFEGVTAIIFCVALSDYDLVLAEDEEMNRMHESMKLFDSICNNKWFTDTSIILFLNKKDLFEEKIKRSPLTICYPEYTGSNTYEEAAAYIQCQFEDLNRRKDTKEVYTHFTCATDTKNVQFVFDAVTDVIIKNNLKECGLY
# Sa growth 42C second temp: further read-out of Sa growth 42C, marked with its call; relative growth, %; measured here: growth at 30 °C;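 optical density after 20 h as mean of two plates; 100% = untreated growth and lower means inhibition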
# * marks the source's active call; other numbers are inactive results; / = not tested or not shown; & = joins results of further samples.
# The first 3 entries (preview)
SMILES,HCMV UL50-53 inh,Sa growth 42C,Sa growth 42C second temp,GIV Gai3 FP
COc1cc(NC(=O)CNC(=O)Cn2ccc3ccccc3c2=O)cc(OC)c1OC,12.9,91.5,94.1,106.2
Cc1ccccc1OCCSc1nc2ccc(NC(=O)c3ccco3)cc2s1,4.8,87.0,49.1,96.8
COc1cc(NS(C)(=O)=O)ccc1Cc1c2ccccc2nc2ccccc12,-94.1,76.2,62.1,/

# The list itself (from the top)
SMILES,HCMV UL50-53 inh,Sa growth 42C,Sa growth 42C second temp,GIV Gai3 FP
COc1cc(NC(=O)CNC(=O)Cn2ccc3ccccc3c2=O)cc(OC)c1OC,12.9,91.5,94.1,106.2
Cc1ccccc1OCCSc1nc2ccc(NC(=O)c3ccco3)cc2s1,4.8,87.0,49.1,96.8
COc1cc(NS(C)(=O)=O)ccc1Cc1c2ccccc2nc2ccccc12,-94.1,76.2,62.1,/
COC(=O)C(Cc1ccccc1)NC(=O)c1c(-c2ccccc2)noc1C (stereo unspecified),4.8,90.4,97.2,/
N#CCc1nn2c(-c3ccccc3)ccnc2c1C#N,-48.2,/,/,108.9
CC1CCN(C(=O)CNC(=O)c2cccs2)CC1,/,105.4,85.6,102.8
CC(C)n1nnc2cc(S(=O)(=O)N3CCCC(C(=O)N4CCC(C(N)=O)CC4)C3)ccc21 (stereo unspecified),1.2,/,/,102.1
CCOC(=O)C1CCCN(CCC(=O)Nc2cccc(C)c2)C1 (stereo unspecified),23.5,100.9,104.0,105.3
Cc1nc2ccc(Cc3ccc4nc(C)oc(=O)c4c3)cc2c(=O)o1,-3.7,92.8,92.8,98.7
C=CCn1c(SCC(=O)c2ccccc2)nnc1-c1cc2ccccc2o1,-10.6,112.5,96.3,102.0
CC1CCN(C(=O)c2ccc(NS(=O)(=O)c3ccccc3)cc2)CC1,-6.7,109.7,98.3,109.8
CCC12CN3CC(CC)(CN(C1)C3c1cccc(OC)c1O)C2=O (stereo unspecified),-26.7,97.5,87.5,94.6
CCOC(=O)c1c(O)c2cccc3c2n(c1=O)CCC3,-3.9,93.7,97.2,99.5
Cc1cc(C(=O)N(C)c2ccccc2)on1,1.1,79.6,83.9,98.1
CCN(CC)S(=O)(=O)c1ccc(C(=O)Oc2coc(CSc3ncccn3)cc2=O)cc1,-32.6,90.9,88.4,107.9
CCc1ccc2oc(-c3cccc(NC(=O)c4ccc(N5CCC(C)CC5)c([N+](=O)[O-])c4)c3)nc2c1,-4.6,118.2,93.9,156.6
COC(=O)CNc1c(-c2ccccc2)nc2ccccn12,/,97.7,86.4,110.7
CNC(=S)Nc1ccc(C)c(NC(=S)NC)c1,-14.1,100.8,93.9,/
O=C(O)C1CCN(Cc2cc3ccccc3n2Cc2ccc(Cl)cc2)CC1,1.3,/,/,98.6
O=C1Oc2ccccc2C2c3sc(=O)[nH]c3SC(c3ccccc3)C12 (stereo unspecified),7.4,86.4,51.0,112.2

# Only Sa growth 42C, HCMV UL50-53 inh and GIV Gai3 FP (2 entries from above):
Structure | Sa growth 42C | HCMV UL50-53 inh | GIV Gai3 FP
CNC(=S)Nc1ccc(C)c(NC(=S)NC)c1 | 100.8 | -14.1 | /
O=C(O)C1CCN(Cc2cc3ccccc3n2Cc2ccc(Cl)cc2)CC1 | / | 1.3 | 98.6

# The listing continues:
SMILES,HCMV UL50-53 inh,Sa growth 42C,Sa growth 42C second temp,GIV Gai3 FP
CC1=C(C(=O)Nc2cccnc2)C(c2cccc(F)c2)n2nc(SCc3ccccc3F)nc2N1 (stereo unspecified),-82.6,120.7,89.0,107.7
O=C(NN=C1C2CC3CC(C2)CC1C3)c1cccc(O)c1,-10.4,88.0,92.6,100.1
CCc1ccc(OC(=O)CSc2nnc(-c3ccc(OC)c(OC)c3)o2)cc1,-15.8,98.0,90.8,102.3
CC1CCN(C(=O)/C=C\c2ccccc2)CC1,-11.3,91.3,86.5,/
N/C(COc1ccc(-c2nnco2)cc1)=N\OC(=O)c1cccc(C(F)(F)F)c1,-14.3,98.0,86.6,101.5
O=C(Nc1nc2ccccc2[nH]1)C1CC1,-5.8,104.9,96.5,/
OC(COC(C(F)(F)F)C(F)(F)F)CN1CCN(c2cccc(C(F)(F)F)c2)CC1 (stereo unspecified),-8.9,93.2,95.2,/
COc1ccc(N2CCN(C(=O)CCS(=O)(=O)c3cc(Br)cc4c3N(C(=O)C3CC3)CC4)CC2)cc1,-4.9,109.9,88.6,99.2
COc1ccc(CCNC(=O)Cn2nnc(-c3ccc(Cl)cc3)n2)cc1OC,/,95.5,100.0,108.8
Cc1nn(-c2ccccc2)c(-n2cccc2)c1C(=O)N1CCC(C(=O)NC(C)c2ccccc2)CC1 (stereo unspecified),4.1,/,/,102.3
C=CCN(CC=C)C(=O)c1c(-c2c(Cl)cccc2Cl)noc1C,-21.4,105.2,84.7,101.6
O=C(O)c1cc(C23CC4CC(CC(C4)C2)C3)nc2ccc(Br)cc12,/,122.3,92.0,99.9
Cc1nc(SCc2cc(=O)n3ccsc3n2)n[nH]1,-6.0,/,/,102.2
CCc1nc(N)nc2c1C(=O)CC(C)(C)C2,-26.2,/,/,101.7
CSc1nc(C)cc(Nc2cccc(C(=O)O)c2)n1,-19.9,107.2,86.0,102.5
COc1ccc(-c2cc3nc(C)c(CCC(=O)N4CCN(c5cc(C)ccc5C)CC4)c(C)n3n2)c(OC)c1,-36.9,111.8,90.4,104.5
NC(=O)C1CCN(C(=O)CSc2nc(O)cc(=O)[nH]2)CC1,4.6,95.3,95.7,101.5
Cc1cccc(C2CC(=O)Oc3c2c(=O)n(C)c2ccccc32)c1 (stereo unspecified),18.5,103.7,106.3,106.2
COc1ccc(C(=O)Nc2nnc(S(=O)(=O)N(C)c3ccc(Cl)cc3)s2)cc1OC,7.9,99.8,94.7,101.9
COc1ccccc1NC(=O)/C=c1\[nH]c(=O)/c(=C\c2ccc(C#N)cc2)s1,-30.7,65.7,82.6,/
COc1cc(OC)cc(C(=O)Nc2nnc(Cc3nc4ccccc4[nH]3)s2)c1,-17.1,/,/,155.9
Cc1ccc(NC(=O)c2cc(S(=O)(=O)NCCC3=CCCCC3)ccc2F)cc1C,/,124.2,84.2,101.4
O=C(C[n+]1ccccc1)Nc1ccccc1,-17.1,105.6,103.9,101.3
Cc1cc(C)c(NC(=O)CSc2nccn2-c2cccc(Cl)c2)c(C)c1,/,107.4,73.6,107.6
Cc1ccc(CN2CCN(C3CCN(S(=O)(=O)c4ccc(CC(C)C)cc4)CC3)C(=O)C2=O)cc1,-19.8,/,/,100.4
CCN(CC)S(=O)(=O)c1cc(-c2onc(C)c2C)ccc1OC,/,96.3,81.9,101.1
Cc1ccc(CNc2ncnc3c2nc2n3CCCCC2)cc1,/,60.7,20.4,91.9
Cc1cc(C)c2oc(-c3cccc(NC(=O)c4ccc(Br)o4)c3C)nc2c1,-22.7,100.0,79.7,101.4
O=C(NCc1cccs1)C(Cc1ccccc1)NS(=O)(=O)c1cccc2nsnc12 (stereo unspecified),-93.7,111.5,78.6,104.1
CC(C)(C)NC1CCCCC1NS(=O)(=O)c1ccc(Cl)cc1 (stereo unspecified),-11.1,106.4,87.1,97.8
Cc1oc2ncnc(N3CCOCC3)c2c1C(=O)NCCc1ccccc1,/,102.4,88.1,103.4
CCCCCCCCOc1ccc(/C=C(\C#N)c2nc(-c3cc4ccccc4oc3=O)cs2)cc1,-11.1,/,/,108.0
Cn1nnc2cc(NC(=O)NCc3ccco3)ccc21,2.5,103.5,90.3,107.3
Cc1ccc(COC2CN(S(=O)(=O)c3ccccc3)C2)cc1,-19.8,/,/,96.3
Nc1cccc[n+]1CC(=O)[O-],-9.2,82.8,94.2,/
C#CCNC(=O)Nc1ccccc1OC,34.9,96.0,102.9,/
CCOc1ccc(N2CC(c3nc4ccccc4n3CCOc3ccc(OC)cc3)CC2=O)cc1 (stereo unspecified),-33.2,114.0,90.7,100.9
CC(=O)Nc1cc(C(=O)N2CC(C)CC(C)C2)ccc1Sc1ccc(Cl)cc1 (stereo unspecified),/,65.4,51.4,103.9
COc1ccc(-c2cn3c(n2)sc2cc(C(=O)N4CCCC(C)C4)ccc23)cc1 (stereo unspecified),-18.8,/,/,102.5
CCOC(=O)C1CCCN(Cn2ncn(C)c2=S)C1 (stereo unspecified),-58.4,103.2,91.6,/

# 5 compounds picked at random from the list so far, as already listed:
SMILES,HCMV UL50-53 inh,Sa growth 42C,Sa growth 42C second temp,GIV Gai3 FP
Cc1cc(C)c(NC(=O)CSc2nccn2-c2cccc(Cl)c2)c(C)c1,/,107.4,73.6,107.6
CCOC(=O)C1CCCN(Cn2ncn(C)c2=S)C1 (stereo unspecified),-58.4,103.2,91.6,/
Cc1ccc(CN2CCN(C3CCN(S(=O)(=O)c4ccc(CC(C)C)cc4)CC3)C(=O)C2=O)cc1,-19.8,/,/,100.4
C#CCNC(=O)Nc1ccccc1OC,34.9,96.0,102.9,/
O=C(C[n+]1ccccc1)Nc1ccccc1,-17.1,105.6,103.9,101.3

# New compounds follow.
SMILES,HCMV UL50-53 inh,Sa growth 42C,Sa growth 42C second temp,GIV Gai3 FP
COc1ccc2c(c1)c1ccccc1n2C,/,122.8,106.3,105.9
COc1ccc(-c2ccc(/C=C3\C(=O)N(c4ccc(Br)cc4)N=C3C)o2)c([N+](=O)[O-])c1,-3.8,/,/,110.1
O=C(CCc1nc2ccccc2o1)Nc1cccc(-n2cnnn2)c1,-40.2,66.9,67.0,/
CCn1cc(C(=O)O)c(=O)c2cc(F)c(N3CCN(C(C)=O)CC3)cc21,-1.8,83.2,91.0,/
O=C(NCc1cccnc1)c1cc(Nc2cccc(C(F)(F)F)c2)nc2ccccc12,/,119.4,77.1,109.2
COCc1cc(=O)[nH]c(-c2ccc(C(F)(F)F)cn2)n1,-39.9,87.6,74.7,106.7
Cc1ccc(Cl)cc1N1C(=O)N(Cc2ccc(C#N)cc2)c2ccccc2S1(=O)=O,/,108.9,90.4,103.9
COCCNC(=O)c1nc2c(nnn2Cc2cc(C)ccc2C)c(=O)[nH]1,-7.7,126.6,90.9,104.8
COc1ccc(-c2sc(C(=O)O)cc2C)cc1,-15.1,93.9,119.7,104.0
Cc1cc(OC(=O)c2ccccc2)n(-c2ccccc2)n1,-11.9,89.3,89.6,98.0
CCOC(=O)c1c(NC(=O)c2ccc(C)cc2)sc(C(=O)Nc2cc(C(F)(F)F)ccc2Cl)c1C,-18.0,/,/,100.4
CCn1c(C)c(CCC(=O)O)c(=O)n2nc(-c3ccccc3OC)cc12,-13.8,105.7,88.9,103.6
CCOC(=O)c1ccc2c(c1)N(CC(=O)Nc1ccc(CC)cc1)C(=O)c1ccccc1S2,/,84.2,90.1,100.1
CC1=NC(C(F)(F)F)(C(F)(F)F)N=C(N(C)C)O1,/,119.0,90.5,103.9
COc1ccc(NC(=O)C(=O)NCCc2csc(-c3ccc(Cl)cc3)n2)cc1OC,/,115.9,72.5,105.3
CCOC(=O)c1cnn(-c2ccccc2)c1NC(=O)CSc1nc2ccccc2o1,-4.4,108.2,86.4,99.5
O=C1COCC(=O)N1c1ccc(F)cc1F,-7.8,98.5,100.5,98.0
COCP(=O)(c1ccccc1)c1ccccc1,6.9,97.3,88.0,105.0
Cc1cc(Cl)ccc1OCC(=O)NC1(C#N)CCCCC1,-26.6,70.3,95.6,/
CC1=C(C(=O)Nc2ccccc2C(=O)N2CCCCC2)SCCO1,-6.7,94.9,96.2,102.4
CCC(=O)NCCCc1nc2ccccc2n1Cc1ccccc1,/,95.9,78.9,100.2
C=CCn1nnc(NCc2ccc(-c3cccc(Cl)c3)o2)n1,-10.2,/,/,99.3
Cc1ccc(NC(=O)CSc2nncn2C)c(C)c1,-12.6,90.3,90.9,103.0
CC(/C=C/c1ccco1)=N/NC(=O)Cc1cccs1,-82.8,91.9,72.0,115.0
Cc1ccc(NC(=O)CN2CCCN(Cc3ccccc3Cl)S2(=O)=O)c(C)c1,/,104.2,94.0,99.9
CCCOc1ccc(C(=O)NCC(c2ccc(OC)cc2)N2CCCCC2)cc1 (stereo unspecified),-33.0,99.6,86.6,104.9
CCc1ccc(NC(=O)c2sccc2-n2cccc2)cc1,/,93.4,87.8,104.9
CCn1c(CN2CCN(C)CC2)nc2cc(NC(=O)C(C)C)ccc21,-14.9,/,/,99.6
Cc1c(O)ccc(C(=O)CN2CCN(c3ccc(F)cc3)CC2)c1O,-29.2,103.3,86.4,105.9
CC(C)S(=O)(=O)c1oc(-c2cccs2)nc1S(=O)(=O)c1ccc(F)cc1,-23.4,84.9,56.8,108.3
O=C(NN1C(=O)CSC1=S)c1ccc(F)cc1,0.6,73.5,93.0,/
O=C(NC1CCCC1)C1CCN(C(=O)c2cccn2-c2cccnc2)CC1,-29.0,/,/,106.0
c1csc(-c2csc3ncnc(NC4CCCC4)c23)c1,2.3&-22.6,93.5,97.0,102.1&113.1
Cc1cccc(-n2ncc(C(=O)c3ccccc3)c2N)c1,-27.3,/,/,98.7
CCC1=[N+]([O-])C(C)(/C(C)=N\O)N(O)C1(C)C (stereo unspecified),/,107.5,91.2,104.2
CCc1ccccc1NNC(=O)c1cc(C)on1,-17.7,94.5,93.3,106.1
c1ccc(CCN2CCc3nc(N4CCN(c5ccccc5)CC4)ncc3C2)cc1,-9.8,120.5,89.0,111.6
Brc1cccc(-c2noc(CSc3ccc(-c4ccccc4)nn3)n2)c1,-18.9,/,/,115.0
COc1cccc(NC(=O)c2cccc3c(=O)c4c([nH]c23)CCCC4)c1,-5.8,99.2,89.9,102.6
COc1ccc(NC(=O)Cn2c(=O)n(CCc3ccccc3)c(=O)c3cccnc32)cc1,-19.1,102.6,86.1,98.4

# From PubChem
